Tg IFNy HTS: T. gondii growth inhibition with IFN-gamma, primary screen, cell-based | Toxoplasma gondii growth in IFN-gamma-treated host cells; hits give low values; reference of the scale not given here | activity change, negative = inhibition, %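 (about 20 µM by stock and volumes)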 | actives 3.8% (n = 69,000) | AID 1259416, 2018;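 active means below -70%; inconclusive means fit judged invalid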;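 further: host cells are HeLa cells infected with Toxoplasma gondii; parasite growth read as luciferase light; one replicate is shown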
* = called active by the depositor; ? = inconclusive; & = joins results of further samples. This is a subset; count on the stated rates, not on these rows.

Compound,Tg IFNy HTS
O=C(Cc1cccnc1)N1CC(=O)N2[C@@H](CO)[C@H](c3ccc(/C=C/c4ccccc4)cc3)[C@@H]2C1,-15
CC(C)Cc1nc(NCCN2CCOCC2)c(C#N)c2c1COC(C)(C)C2,10
COc1cc(N2CC[C@H]3[C@@H]2CCN3C(=O)c2occc2C)ncn1,-4
CO[C@@H]1CC[C@@H]2CCOc3ccc(C#N)cc3C(=O)N(C)[C@H](C)C(=O)N(C)C[C@H]1O2,-22
CC(=O)N1CCN(CC2CC2)CC2(CC(=O)N(C)C2)C1 (stereo not given),80
COc1ccc(NC(=O)N2C[C@H](O)COC[C@H]3O[C@@H](CC(=O)N4CCCCC4)CC[C@@H]32)cc1,7
CCOc1ccc(-c2cc3c(=O)n(Cc4nc(-c5cc(Br)ccc5OC)oc4C)ccn3n2)cc1,61
c1ccc(NCc2ccc(CNc3ccccn3)cc2)nc1,22
CCn1cnnc1CCNc1nc(-c2ccncc2)nc2c1CCNC2,-5
O=C(COc1ccccc1)N1CCC2(CC1)Nc1ccccc1-n1cccc12,-6
CC(=O)N1CCC2(CCOCC2NC(=O)c2ccccc2)CC1 (stereo not given),-93*
O=C(N1CCOCCOc2ccccc2OCCOCC1)C(F)(F)F,9
Cc1ccccc1OC1CCN(CC(=O)Nc2ccc3c(c2)n(C)c(=O)n3C)CC1,-5
CC(=O)Nc1ccc(C(=O)N(c2ccc(C)cc2)C2(C(=O)NCc3ccccc3)CCN(C(C)=O)CC2)cc1,80
CN1CCN(S(=O)(=O)c2ccc(C(=O)N3CCCc4ccccc43)cc2)CC1,7
CCC(CC)C(=O)N1CCC2(CCCN2C)CC1,-23
COC(=O)C1=CO[C@@H](O)[C@@H]2C(CO)=CC[C@H]12,22&-23
COc1ccc2[nH]c(C)c(CN3CCC(C)CC3)c(=O)c2c1,-2
Cn1c(C2CCCN(c3ncccn3)C2)nc2ccccc21 (stereo not given),14
Cc1cccc(Cn2c3c(ccc2=O)CCNCC3)n1,-16
CC(=O)Nc1cccc(-c2ccc(C(=O)NC3CC3)s2)c1,292
O=C(O)c1ccc2cc(-c3ccc(O)c(C45CC6CC(CC(C6)C4)C5)c3)ccc2c1,-74*
CCCCC[C@H](CC(=O)NO)C(=O)N[C@H](C(=O)N1CCC[C@H]1CO)C(C)C,-77*
Cc1cc(Cn2cnc(-c3ccccc3)c2-c2cccn2-c2ncccn2)n[nH]1,-2
Cc1cc(-c2ccc3c(c2)OCCO3)cnc1N,75
Cc1c(CN2CCN(C3CCCC3)C(=O)C2)c(-c2ccccc2)nn1C,-57
Cc1cc(C)n(CCC2CC(=O)Nc3nn(Cc4ccccc4)c(C)c32)n1 (stereo not given),9
CC(C)NC(=O)N1CC(=O)N2[C@H](C1)[C@@H](c1ccc(/C=C/c3ccccc3)cc1)[C@@H]2CO,-54
COC(=O)[C@@H]1C[C@@H](NC(=O)CCN2CCCO2)CN1C,12
CCN1C(=O)[C@H]2CN(C(C)=O)C[C@@H]2C12CCN(S(=O)(=O)c1ccc(C)cc1)CC2,4
N#CCS(=O)(=O)c1ccc(OC(F)(F)F)cc1,1
C[C@@]1(O)CCN(C(=O)Cc2ccc(O)cc2)C[C@@H]1Cc1ccccc1,5
CS(=O)(=O)N1CCCC12CCCN(S(=O)(=O)c1cc(F)cc(F)c1)C2 (stereo not given),1
COCc1ncn2c1CN(C(=O)c1cnc(C)cn1)CCC2,16
CNc1cc(OC)c(C(=O)N[C@@H]2CCN(Cc3ccccc3)[C@@H]2C)cc1Cl (racemic),-53
CC1(C)c2ccccc2N2CC(=O)NC21/C=C/c1ccco1 (stereo not given),38
Cc1cc(NC(=O)CSc2nc(C34CC5CC(CC(C5)C3)C4)nc3ccccc23)no1,-31
Cc1noc(C)c1NC(=O)Nc1ccc2c(c1)C(=O)N(C)[C@H]1CC[C@H](CC(=O)N[C@H]3CCN(Cc4ccccc4)C3)O[C@H]1CO2,0
COc1ccc(CC(=O)Nc2ccc3c(c2)CCC(=O)N3C)cc1Cl,-13
CCC(C)Nc1nc(-c2nnc(-c3cccc(C)c3)o2)nc2ccccc12 (stereo not given),-60
CN([NH2+][O-])C(=O)N[C@@H]1[C@@H](O)[C@H](O)[C@@H](CO)O[C@@H]1O,14
NCC[C@H]1CC[C@H](NC(=O)Cc2ccncc2)[C@@H](CO)O1,-4
C[C@@H]1CN([C@H](C)CO)C(=O)c2cc(NS(=O)(=O)c3cccs3)ccc2O[C@H]1CN(C)S(=O)(=O)c1ccc(Cl)cc1,-5
O=C(c1cccs1)N1CCC(c2[nH]nc3nccnc23)CC1,-33
CN1C(=O)C(OC(=O)c2ccccc2)N(c2ccc(Cl)c(Cl)c2)C1=O (stereo not given),-7
C[C@H](O)C#Cc1ccc([C@H]2[C@H]3CN(C(=O)c4ccc5c(c4)OCO5)CCCCN3[C@H]2CO)cc1,-37
Cc1nc(-c2cccc(F)c2)sc1CCNC(=O)c1c(F)cccc1Cl,-20
COc1ccc([C@@H]2CN(S(C)(=O)=O)[C@H]3CCN(C(=O)c4cccnc4)C[C@@H]23)cc1,62
Clc1cccc(C2N(Cc3ccccc3)CCN2Cc2ccccc2)c1Cl,-26
COC1CCCCC1Nc1cc(C)ccc1C (stereo not given),-49
O=C(CSc1nnc(-c2ccccc2)c(-c2ccccc2)n1)NC1CCCC1,-20
Cc1cc2c(N3CCC4(CC3)CNC(=O)C4)ncnc2s1,7
N#CCSC1=Nc2ccccc2C2=NC(CCC(=O)NCCc3ccccc3)C(=O)N12 (stereo not given),33
Cc1oc(-c2ccccc2Cl)nc1COc1ccc(N2CCOC2=O)cc1,-12
Oc1ccc(Oc2ncc(Cl)cc2Cl)cc1,-1
Cc1ccc(-n2ncc3c(NC4CCCCCCCCCCC4)ncnc32)c(C)c1,?
Cc1noc(C)c1Cn1cnc(-c2ccccc2)c1C1CCOC1 (stereo not given),0
S=C(Nc1ccccc1)SCc1c(Cl)cccc1Cl,74
O=C(Nc1ccccc1N1CCN(C(=O)c2ccccc2)CC1)c1ccc2c(c1)OCO2,?
CC(=O)NC(Cc1ccccc1)C(=O)NC1CCN(c2nc(C)cc(C)c2C#N)CC1 (stereo not given),-59

Continuation.
SMILES | Tg IFNy HTS
CCCN1CC(c2n[nH]c(CCc3ccccc3)n2)CCC1=O (stereo not given) | -13
C[C@H]1CN([C@@H](C)CO)C(=O)c2cc(NC(=O)C3CCCCC3)ccc2O[C@H]1CN(C)C(=O)Nc1ccc(C(F)(F)F)cc1 | -15
Cc1nc(CNC(=O)CSCc2ccccc2Cl)cs1 | 71
CC(C)CN(Cc1ccsc1)C(=O)CCN1CCCCCC1=O | -1
COCCCNC(=S)Nc1ccc(OC)cc1 | 91
Cn1cc(-c2cc3n(n2)CCC(=O)N3CC(=O)N2CCCC2)c2ccccc21 | 29
Cc1cc(CSc2cc(C)c(Cl)cc2C)no1 | -59
COc1ccc2c3c(n(C)c2c1)[C@H](CO)N(C(=O)Nc1ccc(F)cc1)CC31CN(C(=O)c2cccnc2)C1 | 178
CCC(=O)N1CCc2c(nc3cc(C4CCCCN4Cc4cccs4)[nH]n3c2=O)C1 (stereo not given) | -34
COc1ccc(C)cc1NC(=O)Cn1ncc2c(N3CCOCC3)ncnc21 | -44
CCc1ccc(S(=O)(=O)N2CCc3nc(CNC(=O)C4CCC4)n(C)c3C2)cc1 | -47
O=C(C(=O)N1CCN(c2ncnc3c2nnn3Cc2ccccc2)CC1)c1c[nH]c2ccccc12 | -32
Cn1c(=O)c2nc3ccccc3nc2n(C)c1=O | -13
O=C(Cc1cccc(F)c1)N1CC[C@H]2[C@@H]1CCN2c1ncccn1 | 15
COc1ccc(-n2cnc3nc[nH]c(=O)c32)cc1 | 7
Cc1cc2c(SCC(=O)N3CCCC(c4ccn[nH]4)C3)ncnc2s1 (stereo not given) | 18
O=C(C[C@H]1C=C[C@H](NC(=O)c2ccncc2)[C@H](CO)O1)NCC1CC1 | 10
COc1ccc(NC(=O)N2CCC3(CC2)CN(C(=O)c2cccnc2)[C@@H](CO)c2[nH]c4cc(OC)ccc4c23)cc1 | 107
CCc1nn(-c2ccccc2)c(NC(=O)c2cnccn2)c1C | -69
CCOC(=O)c1sc(-c2ccccc2)nc1CSc1ccccn1 | 58

Compounds shown so far that contain an aryl thioether with sulfur outside any ring:
SMILES | Tg IFNy HTS
Cc1cc(NC(=O)CSc2nc(C34CC5CC(CC(C5)C3)C4)nc3ccccc23)no1 | -31
O=C(CSc1nnc(-c2ccccc2)c(-c2ccccc2)n1)NC1CCCC1 | -20
Cc1cc(CSc2cc(C)c(Cl)cc2C)no1 | -59
Cc1cc2c(SCC(=O)N3CCCC(c4ccn[nH]4)C3)ncnc2s1 (stereo not given) | 18
CCOC(=O)c1sc(-c2ccccc2)nc1CSc1ccccn1 | 58

The list goes on:
SMILES | Tg IFNy HTS
CC(C)c1cc(C2CCN(C(=O)Cn3nc4ccccc4n3)CC2)[nH]n1 | -2
O=c1c2ccccc2nc2c3ccccc3c(Cl)nn12 | -11
COc1cccc(N2CC(C(=O)N3CCC(O)(Cn4ccnc4C)CC3)CC2=O)c1 (stereo not given) | 108
O=C(O)CSCC(=O)Nc1ccccc1Oc1ccccc1 | 30
c1ccc(CN2CCNCC(Cc3cnccn3)C2)cc1 (stereo not given) | -16
O=C(c1ccc[nH]1)N1CCC2(CC1)C(=O)NCC2c1ccccc1 (stereo not given) | 1
O=C(Cc1ccccn1)c1cc(-c2ccn[nH]2)n2ccccc12 | 9
COc1ccc([C@H]2C/C=C\C[C@@H](c3ccc4c(c3)OCO4)NC(=O)CCC(=O)N2)c(OC)c1 | -52
Cn1c(=O)c2c(nc(CN3CCc4ccccc4C3)n2Cc2ccccc2F)n(C)c1=O | -79*
C=CCc1c(C)nc(-c2ccccc2)nc1Nc1ccc(C)cc1 | -64
OC[C@H]1[C@H](c2ccc(C#CC3(O)CCCC3)cc2)[C@@H]2CN(Cc3cncnc3)CCCCN12 | -35
Cc1[nH]nc2c1C(c1cc(C(C)C)no1)CC(=O)N2 (stereo not given) | 6
Cc1cccnc1CN(C(=O)CC1C(=O)NCCN1Cc1ccoc1)C(C)C (stereo not given) | 5
COc1ccccc1-n1cc(-c2ccnc(N(C)Cc3cccc(C)n3)n2)cn1 | 45
Cn1nc(C(C)(C)C)cc1C(=O)Nc1c(-c2ccccc2)c(C(F)(F)F)nn1C | -95*
Cc1ccc(-c2nnc(N3CCC(C(=O)N4CCC(N5CCCCC5)CC4)CC3)o2)cc1 | -26
COc1cc(C(=O)NCCCn2ccnc2)cc(OC)c1OC | -6
CCc1nc([C@H]2CN(C)C[C@@H]2C(=O)NCCc2cnccn2)c(C)[nH]1 | 6
COc1ccccc1C#Cc1ccc([C@@H]2[C@H]3CN(C(=O)C4CCC4)CCCCN3[C@H]2CO)cc1 | -42
COC(=O)[C@@H]1C[C@H](NC(=O)c2sc3cccc(F)c3c2Cl)CN1C | 13

Reprinted at random: 3 entries already listed
SMILES | Tg IFNy HTS
COC(=O)[C@@H]1C[C@H](NC(=O)c2sc3cccc(F)c3c2Cl)CN1C | 13
COc1ccccc1-n1cc(-c2ccnc(N(C)Cc3cccc(C)n3)n2)cn1 | 45
Cc1cccnc1CN(C(=O)CC1C(=O)NCCN1Cc1ccoc1)C(C)C (stereo not given) | 5

The results go on.
SMILES | Tg IFNy HTS
C=CCNc1ncc(-c2cc(C)no2)c([C@H]2CCCO2)n1 | -15
Cc1ccccc1OCC(=O)NCCc1sc(-c2cccc(F)c2)nc1C | 5
COc1ccc(Cl)cc1NC(=O)C1CC(=O)n2c(nc3ccccc32)N1 (stereo not given) | 48
O=C(CC(F)(F)F)N1C[C@H]2[C@@H](c3ccccc31)[C@H](CO)N2CC1CCOCC1 | -32
COc1ccc(F)c(-c2ncccc2C(=O)N2C[C@H]3CC[C@@H]2C3)c1 | -1
COc1ccccc1-c1cccc(CC2(C(=O)NCCC3=CCCCC3)CCOCC2)c1 | 8
Cc1ccc(C2(O)CCN(c3ccc(C(=O)N(C)C)cn3)CC2)nc1 | 66
CCOC(=O)C12CC1/C(=N/O)c1ccccc1O2 (stereo not given) | 12
O=C(Nc1ccc(F)cc1)N1CC(=O)N2[C@H](CO)[C@@H](c3ccc(C4=CCCC4)cc3)[C@H]2C1 | -7
CCC(=O)c1ccc(OCC(O)CN2CCN(c3ccccc3)CC2)cc1 (stereo not given) | 12

The final four entries of the part above open the next one.
SMILES | Tg IFNy HTS
Cc1ccc(C2(O)CCN(c3ccc(C(=O)N(C)C)cn3)CC2)nc1 | 66
CCOC(=O)C12CC1/C(=N/O)c1ccccc1O2 (stereo not given) | 12
O=C(Nc1ccc(F)cc1)N1CC(=O)N2[C@H](CO)[C@@H](c3ccc(C4=CCCC4)cc3)[C@H]2C1 | -7
CCC(=O)c1ccc(OCC(O)CN2CCN(c3ccccc3)CC2)cc1 (stereo not given) | 12
COCCN1CCO[C@H]2CCN(C(=O)c3ccc(C)s3)C[C@H]21 | 12
Cc1cnc(N)c(-c2ccc(O)cc2)c1 | -2
CCNC(=O)CCC/C=C\C[C@@H]1[C@@H](/C=C/C(O)CCc2ccccc2)[C@H](O)C[C@@H]1O (stereo not given in full) | 5
O=C(NCCc1ccncc1)c1cc(Br)ccc1O | -76*
CC(C)(O)C#Cc1cccc(C(=O)N2CCCCC2c2cccnc2)c1 (stereo not given) | -12
O=C(Nc1cccc(-c2nc3ccccc3o2)c1)c1ccccc1 | -12
CN(C)CCNC(=O)c1ccc2ccc(N(C)Cc3ccccc3)n2c1 | 0
CCN1CCC2(CC1)OC(=O)C(C)=C2C(=O)NCC(C)c1ccccc1 (stereo not given) | -12
COCCC1CCCCN1Cc1ccc(S(C)(=O)=O)cc1 (stereo not given) | -5
Fc1ccc(C2(c3noc(CCc4nc(Cl)n[nH]4)n3)CCOC2)cc1 (stereo not given) | 24
CC(C)(CNC(=O)c1cccc(CN2CCCC2=O)c1)c1ccccc1F | -9
C=Cc1c(S(C)(=O)=O)sc(C(=O)Oc2ccccc2)c1C | 64
CCN(CC)C(=O)c1cnc(C2CCCCN2C(=O)Cc2cn3ccsc3n2)nc1C (stereo not given) | 17

Source: PubChem
